Compound activity deposited in PubChem BioAssay by National Center for Advancing Translational Sciences (NCATS).
TRPV1 potentiator = enhances activation of the human vanilloid receptor TRPV1. Q8NER1. TRPV1-expressing cells, Fluo-8 calcium influx, capsaicin EC20 potentiation; host cell line not named in the record; control for the full effect not named in the record. actives 0.02% (n = 320,000). potentiation, % at 8.33 µM; active means potentiation above 80%; inconclusive means 30% to 80%; inactive means below 30%; also: 0% is about no effect
Target sequence (Q8NER1 whole entry, looked up): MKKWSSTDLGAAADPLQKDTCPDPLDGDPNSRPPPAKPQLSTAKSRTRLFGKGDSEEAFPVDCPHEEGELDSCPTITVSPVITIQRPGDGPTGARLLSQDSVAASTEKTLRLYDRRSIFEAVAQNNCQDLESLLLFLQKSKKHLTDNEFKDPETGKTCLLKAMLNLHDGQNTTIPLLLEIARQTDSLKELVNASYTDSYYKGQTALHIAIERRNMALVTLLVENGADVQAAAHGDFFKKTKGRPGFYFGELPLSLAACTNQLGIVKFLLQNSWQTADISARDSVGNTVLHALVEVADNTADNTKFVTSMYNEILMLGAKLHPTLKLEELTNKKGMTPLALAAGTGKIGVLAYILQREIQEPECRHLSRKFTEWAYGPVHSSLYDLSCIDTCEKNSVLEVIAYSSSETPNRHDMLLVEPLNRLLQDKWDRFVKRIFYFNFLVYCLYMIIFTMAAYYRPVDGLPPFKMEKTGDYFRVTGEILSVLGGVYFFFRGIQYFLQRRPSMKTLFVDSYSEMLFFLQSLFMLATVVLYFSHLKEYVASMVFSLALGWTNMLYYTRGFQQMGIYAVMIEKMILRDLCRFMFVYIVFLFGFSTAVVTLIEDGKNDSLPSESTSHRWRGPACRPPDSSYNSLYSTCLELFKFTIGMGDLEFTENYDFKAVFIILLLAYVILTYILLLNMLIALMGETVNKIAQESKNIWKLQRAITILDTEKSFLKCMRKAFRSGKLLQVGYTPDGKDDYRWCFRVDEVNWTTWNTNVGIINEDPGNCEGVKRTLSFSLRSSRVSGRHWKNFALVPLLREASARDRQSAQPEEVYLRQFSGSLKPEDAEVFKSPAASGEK
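Fluo-8 calcium influx in TRPV1-expressing cells, kinetic read (ex 480/em 520 nm). Compound added and read 3 min for agonist activity, followed by capsaicin at EC20 final and 2 min further read for enhancement.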
Menin MLL FP FL = displaces fluorescein MLL peptide from human menin; Fluorescence polarization, fluorescein-MLL peptide displacement from menin; FP activity change, % at 61.4 µM; 290,000 tested, under 10 active; AID 1766; inconclusive = falling polarisation curve, or a change in total fluorescence; inactive = total fluorescence flat and polarisation flat or rising; no compound was filed as active; the % refers to the polarisation; negative = inhibition;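 also: % of control where 0% means no effect; inhibitors lower the polarisation; unlabelled MLL peptide was the positive control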
TRPML1 blocker = blocks the human TRPML1 channel; TRPML1-inducible cells, Ca2+ dye fluorescence, FDSS; active compounds read low; inhibition of EC80 agonist-evoked calcium signal; activity change, negative = inhibition, % (concentration not given with the values); actives 0.02% (n = 390,000); AID 624415; in the data active means activity change below about -50%; inconclusive means about -30% to -50%; inactive means above about -30%;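 also: stimulus is agonist 54-4 at its EC80 concentration; % is scaled to controls: 0 for no effect and ±100 for the full control effect; the text of the record puts the active cut at -80%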
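Calcium fluorescence in TRPML1-DL cells induced overnight with Tet: a 110 s read after compound pin addition, then a 110 s antagonist read after challenge with 54-4 at 4 uM final (EC80).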
Sfp inh = blocks B. subtilis Sfp PPTase activity; AID 1490; actives 3.5% (n = 310,000); Q9F4F7; Biochemical Sfp PPTase activity, qHTS; Potency, µM, for the others: max response, negative = inhibition, usual class: inhibitors; active = well fitted inhibition curve with a large enough effect; inconclusive = small, poorly fitted or top-dose-only effect, or another doubt; inactive = no such curve, though single readings can be large or run the other way;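 also: the enzyme is Sfp with the accession as filed and its product quenches rhodamine fluorescence; potency is read from the fitted curve at half-maximal effect; 0% = enzyme reaction without inhibitor and -100% = no enzyme wells; top concentration of the series not given in the record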
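Fluorescence-quenching assay with 15 nM Sfp, 5 uM rhodamine-CoA and 12.5 uM BHQ-2-labelled ybbR peptide in pH 7.6 Hepes/MgCl2 buffer. Enzyme was pre-incubated with compound for 15 min at room temperature. Rate was taken from the 30-min fluorescence change (525/598 nm).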
ClpP mod = qHTS Assay for Activators of ClpP; ATP-dependent Clp protease proteolytic subunit (Bacillus subtilis (strain 168)), P80244; purified B. subtilis ClpP, FRET peptide cleavage, 20 min; Potency, µM (series often up to 57.5 µM), inactives show at the highest dose activity change, negative = active; actives 1.9% (n = 340,000); active = well fitted falling curve with a large enough effect; inconclusive = small, poorly fitted or top-dose-only effect; inactive = no such curve, though single readings can be large or run the other way; also: potency is read from the fitted curve at half-maximal effect; the source files actives as falling curves though it sought activators and does not explain the sign; nearly all actives have a fitted effect of over 65% in size; many hits overshoot -100%
Target sequence (P80244 whole entry, looked up): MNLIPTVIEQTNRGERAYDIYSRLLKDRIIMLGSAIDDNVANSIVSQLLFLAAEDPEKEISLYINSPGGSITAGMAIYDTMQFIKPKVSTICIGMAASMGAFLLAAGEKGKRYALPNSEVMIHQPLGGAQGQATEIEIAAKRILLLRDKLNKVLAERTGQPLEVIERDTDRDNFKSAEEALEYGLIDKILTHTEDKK
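Purified B. subtilis ClpP, 10 microg/mL final in Tris/HCl pH8 with KCl, BSA, glycerol and Tween-20, cleaved an Abz/nitrotyrosine-quenched decapeptide. Fluorescence (ex 320, em 430) was read at 0 and 20 min at room temperature. Delta was normalized to 5.8 microM ADEP and DMSO/no-enzyme controls.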
gsp ag = agonists of gsp mutant (McCune-Albright syndrome) | Potency, µM (doses to about 76.9 µM), for the others: at the highest dose activation (cAMP increase), hits mostly activators | actives 0.13% (n = 340,000) | gsp mutant cells, cAMP HTRF, 30 min; control for the full effect not named in the record | AID 624287; active = well fitted activation curve with a large enough effect; inconclusive = small, poorly fitted or top-dose-only effect, or another doubt; inactive = no such curve, though single readings can be large or run the other way; cell line not stated here;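 also: phosphodiesterase inhibitor Ro 20-1724 added with compounds to block cAMP breakdown; potency is read from the fitted curve at half-maximal effect; nearly all actives have a fitted effect of over 60% in size; about a fifth of the inactives were tested at one dose only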
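Cells in DMEM/10% FBS with G418 were pretreated with compounds in DMSO plus […] (300 uM stock) for 30 min at 37C. cAMP was measured by HTRF (cAMP-d2 plus anti-cAMP antibody-K) after 30 min at room temperature.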
gsp antag = antagonists of gsp mutant (McCune-Albright syndrome); gsp-mutant cells, cAMP HTRF, 30 min; control for the full effect not named in the record; Potency, µM (top dose mostly 76.9 µM), without a hit: at the top dose activity change, negative = inhibition, usual class: inhibitors; actives 0.4% (n = 340,000); AID 624288; active = falling curve of any shape with a large fitted effect; inconclusive = falling curve, mostly with a smaller effect; inactive = flat or rising curve; cell line not stated here;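 also: intracellular cAMP measured with PDE inhibitor Ro 20-1724 present during compound exposure; potency is read from the fitted curve at half-maximal effect; % is scaled to controls: 0 for no effect and ±100 for the full control effect; nearly all actives have a fitted effect of over 65% in size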
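G418-selected cells were plated in DMEM/10% FBS for 16-24 h at 37C, then treated with compounds plus the PDE inhibitor […] (300 uM solution added) for 30 min at 37C. Intracellular cAMP was measured by HTRF after 30 min lysis at room temperature.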
Active calls of the source: *; ? = inconclusive; / = not tested or not shown; & = joins results of further samples; [ ] = another dose, or the depositor's remark.

SMILES	TRPV1 potentiator	Menin MLL FP FL	TRPML1 blocker	Sfp inh	ClpP mod	gsp ag	gsp antag
CC(C)(C)c1cc(C(=O)C[n+]2ccc(C(=O)NCCCO)cc2)cc(C(C)(C)C)c1O	-23	-1.3	15	4%	/	20%[15.4 µM]	6%
Cc1ccc(C)c(CSc2ccc3nnc(-c4ccccn4)n3n2)c1	-11	-5.3	23	-14%	-0.5%	8%[15.4 µM]	-30%
CC#CC(=O)N1CCC(n2nccc2NC(=O)CCc2ccccc2)CC1	/	/	-5	/	-0.7%	-29%	/
COC(=O)c1ccc(SC)cn1	0	2.7	-19	13%	/	6%[15.4 µM]	8%
COc1cc(NC(=O)c2oc3ccccc3c2C)ccc1NC(=O)c1ccco1	-1	16	-7	2%	/	-9%[15.4 µM]	-20%
CCN(CC)S(=O)(=O)c1ccc(N(C)C)c(NC(=O)CC(NC(C)=O)c2ccccc2)c1 (stereo not given)	2	-1.0	-1	14%	/	-11%	11%
COCCNC(=O)c1cc(-c2ccc(-c3ccccc3)cc2)nc2ccccc12	16	/	-9	10%	3.2%	-32%[inhibitor]	-2%
Nc1nc(NCCOCCO)nc(N2CCCCCC2)c1[N+](=O)[O-]	-12	3.5	-13	21%	/	-47%[inhibitor]	1%
O=C(OCC(=O)N1CCCc2ccccc21)c1ccc(S(=O)(=O)C(F)F)cc1	6	/	1	/	-14%	16%	-11%
O=C(CN1C(=O)C2(OCCCO2)c2ccccc21)NCCc1ccccc1	-15	0.0	1	13%	0.8%	4%	9%
COc1ccc(C2C(C#N)=C(N)Oc3cc(N)ccc32)cc1OC (stereo not given)	-9	?	20	?	-1.1%	5%	17%
CCOC(=O)c1c(C)[nH]c(C)c1C(=O)COC(=O)/C=C/c1ccccc1[N+](=O)[O-]	/	/	0	/	0.5%	9%	-15%
CN(C)c1cc(-c2ccc([N+](=O)[O-])cc2)oc(=O)c1Cl	-31	?	-7	2%	-0.8%	9%[15.4 µM]	-4%
O=C(COC(=O)C1CCCC1)NCc1ccc(Cl)cc1	-21	-3.1	-10	12%	/	6%	7%
CC(C)(C)OC(=O)N1CCC(c2c(C(=O)N3CCN(C(=O)c4ccco4)CC3)cnn2-c2ccc(F)cc2)CC1	4	0.5	-5	-4%	-3.0%	-50%[inhibitor]	14%
CCOC(=O)C1C(=O)CC(C)(O)C(C(=O)OCC)C1c1ccc([N+](=O)[O-])cc1 (stereo not given)	-11	3.4	-2	1%	-3.9%	-2%	-1%
CC1(C(=O)Nc2nnc(SCc3ccccc3)s2)Cc2ccccc2C(=O)O1 (stereo not given)	18	-1.8	15	-9%	4.5%	-1%	-27%
C=CCNC(=O)[C@@H]1CSC2c3ccc(OC)c(OC)c3C(=O)N21 (stereo not given in full)	-3	-1.8	12	6%	3.4%	-60%[inhibitor]	2%
COc1cccc(C(=O)NCC(=O)OCC(=O)Nc2cc(OC)c([N+](=O)[O-])cc2C)c1	10	1.4	-10	26%	-1.9%	?	-1%
Cc1nc(C)n(C(C)CNS(=O)(=O)c2ccc(Cl)cc2)n1 (stereo not given)	8	-0.5	20	9%	/	-19%	5%
CCCCNC(=O)C(C)N(CCN(C)C)C(=O)CCCN1C(=O)NC(c2ccc(Cl)cc2)C(C(=O)OCc2ccccc2)=C1C (stereo not given)	/	/	29	/	1.8%	/	7%
CCCCCC(=O)N1C[C@H](n2cc(COC(=O)c3ccccc3)nn2)[C@@H](O)C[C@@H]1c1ccc(C)cc1	/	/	3	/	-1.4%	2%	/
O=C(Cn1c(CSc2ccccc2)nc2ccccc21)Nc1ccccc1	4	-2.1	/	-21%	/	/	/
CCOC(=O)c1ccc2c(c1)C(=O)N(C1CCCCC1)C2=O	-10	1.4	-6	-2%	-0.1%	6%	20%
CC1CCCCC1NC(=S)Nc1cccc(S(=O)(=O)N(C)C)c1 (stereo not given)	3	2.1	39	0%	/	-16%[15.4 µM]	-14%
O=C(Nc1cccc2ccccc12)C1CCCC1	-4	1.0	6	10%	0.9%	2%	10%
O=C(Nc1ccc(Cl)cc1)C1CCN(C(=O)NC2CCCCC2)CC1	-19	-0.1	4	12%	1.9%	18%	4%
O=C1CCN(CCc2ccccc2)CCN1[C@H](COc1ccccc1)Cc1ccccc1	-26	4.4	97	?	0.4%&0.8%	/	-17%
O=C(N/N=C/c1coc2ccccc2c1=O)c1cn(-c2ccccc2)nc1-c1ccc(F)cc1	3	-0.4	27	2%	2.5%	0%	-1%
COc1ccc(C(=O)NCCc2c[nH]c3ccccc23)cc1	-3	4.9	6	7%	/	-9%	-3%
O=C1CN2Cc3c(ccc(Cl)c3Cl)N=C2N1	/	-1.7	-9	-2%	-0.6%	/	-5%
COc1ccc2c(c1)[n+](=O)c(C(C)=O)c(C)n2[O-]	-1	6.4	6	-27%	-9.8%	-4%	15%
Cn1cc(C(=O)N/N=C/c2cccs2)c2ccccc21	8	4.1	-11	-21%	-0.8%	-2%[15.4 µM]	-8%
COc1ccc(C(=O)CC(=O)C(=O)Nc2ccccc2C(F)(F)F)cc1	7	-6.7	-4	6%	3.5%	15%	-2%
CC1CCN(CCOc2ccc(OCc3ccccc3)cc2)CC1	-5	3.2	11	-31%	3.2µM*	2%	10%
O=C1NN=COc2ccccc21	4	-1.4	-21	?	4.0%	-14%	-5%
O=C(CSc1nc2scc(-c3ccccc3)c2c(=O)[nH]1)Nc1ccccc1	13	/	-2	-10%	2.5%	9%	-26%
O=C(Nc1nn[nH]n1)c1cccc([N+](=O)[O-])c1	-11	-3.3	4	-27%	/	22%[15.4 µM]	25%
O=C(c1ccco1)N1CCN(S(=O)(=O)c2ccc(S(=O)(=O)NC3CCCCC3)cc2)CC1	16	-0.9	2	8%	1.1%	-72%[inhibitor]	-11%
O=C(COC(=O)c1cncc(Br)c1)NCc1ccccc1Cl	-13	-3.2	64	9%	-1.2%	6%[15.4 µM]	-5%
COc1cc(C(c2c(C)[nH][nH]c2=O)c2c(C)[nH][nH]c2=O)cc(OC)c1OC	14	-0.2	-11	-9%	/	13%	1%
O=C(CCn1cccc(C(F)(F)F)c1=O)Nc1cccc(C(F)(F)F)c1	28	1.1	2	12%	/	?	0%
Cc1ccccc1C(=O)N/N=C1\SCC(=O)N1Cc1ccco1	8	-5.9	-24	11%	/	6%[15.4 µM]	-6%
O=C(OCN1C(=O)c2ccccc2C1=O)c1cc(S(=O)(=O)N2CCOCC2)ccc1F	10	/	4	/	-17%	3.2µM*	-1%
COc1ccc(CC(NC(C)=O)C(=O)NC2CCN(C(=O)c3cc(OC)c(OC)c(OC)c3)CC2)cc1 (stereo not given)	3	0.3	18	8%	-1.0%	-17%	16%
COC(=O)CC1C(=O)NC(C)=C1C(=O)OC (stereo not given)	3	2.3	/	19%	/	/	/
Cc1cccnc1NC(=O)CCNC(=O)c1ccc(Cl)cc1	2	-2.0	-23	31%[activator]	-0.5%	13%	-5%
Nc1c(NC2CCCCC2)c2ccccc2oc1=O	-5	-0.4	6	-11%	-6.1%	8%	-20%
O=C(c1cn(-c2ccccc2)nc1-c1cccnc1)N1CCN(S(=O)(=O)c2ccccc2F)CC1	3	/	-1	/	-0.6%	28%	-5%
CCOc1cc(C=O)ccc1OCc1cc(=O)n2cc(C)ccc2n1	-1	-0.3	2	23%	-3.4%	21%[15.4 µM]	0%
CCc1ccc(NC(=O)C2CCN(S(=O)(=O)c3ccc4[nH]c(=O)ccc4c3)CC2)cc1	27	1.6	-3	10%	-2.6%	2%	5%
Cn1cc(CN2CCC(C(=O)N3CCCCC3)CC2)c(-c2ccccc2F)n1	4	0.3	-1	-7%	/	27%[15.4 µM]	-12%
CC1(C)C2CC=C(/C=N/NC(=O)c3ccccc3O)C1C2 (stereo not given)	-23	-0.1	-10	-6%	/	1%	-23%
C[C@@H]1CN([C@H](C)CO)C(=O)c2cc(Br)cnc2O[C@@H]1CN(C)C(=O)Nc1cccc(F)c1	/	/	-5	/	0.8%	16%	/
C=CCn1cccc(C(=O)Nc2ccc(C)c(C)c2)c1=O	4	-0.4	41	8%	/	24%	-15%
CC(C)(C)Cc1nnc(NC(=O)Cc2cccs2)s1	0	-0.4	-16	18%	/	-2%[15.4 µM]	3%
C#CCNC(=O)C1=C[C@H](c2ccc(C(F)(F)F)cc2)C[C@H](OCCCCO)O1	-18	3.4	3	7%	-0.9%	/	3%
CC(C)CNC(=O)[C@@H]1CSC2c3ccccc3C(=O)N21 (stereo not given in full)	-14	7.1	8	5%	-2.3%	14%[15.4 µM]	-4%
COc1ccc(NC(=O)C(Cc2ccccc2)n2cccc2)c(OC)c1 (stereo not given)	-1	-2.2	-15&-11	-4%	2.0%&0.5%	1%	-12%
Cc1cc(Br)c2c(c1)/C(=C/C(=O)c1cccs1)C(=O)N2	10	-1.4	2	-16%	/	34%[15.4 µM]	-27%

Looked up one by one from the list above (2):
SMILES	TRPV1 potentiator	Menin MLL FP FL	TRPML1 blocker	Sfp inh	ClpP mod	gsp ag	gsp antag
C=CCNC(=O)[C@@H]1CSC2c3ccc(OC)c(OC)c3C(=O)N21 (stereo not given in full)	-3	-1.8	12	6%	3.4%	-60%[inhibitor]	2%
CCCCCC(=O)N1C[C@H](n2cc(COC(=O)c3ccccc3)nn2)[C@@H](O)C[C@@H]1c1ccc(C)cc1	/	/	3	/	-1.4%	2%	/

Other compounds.
SMILES	TRPV1 potentiator	Menin MLL FP FL	TRPML1 blocker	Sfp inh	ClpP mod	gsp ag	gsp antag
O=C(N/N=C\c1cccs1)c1sccc1-n1cccc1	1	-0.7	-6	11%	/	24%	-5%
COCCN(CC(=O)Oc1ccccc1P(=O)(OC)OC)Cc1ccccc1	-1	2.3	-2	-21%	/	0%[15.4 µM]	-4%
COc1cccc(NC(=O)N2CCC(N3CCCCC3)CC2)c1	-9	-0.1	71	15%	-7.7%	1%	9%
CCc1ccc(NC(=O)COc2coc(CN3CCN(c4ccccc4)CC3)cc2=O)cc1	8	/	21	/	-0.7%	16%	7%
COc1ccc(Nc2cc(C)c3ccccc3n2)cc1	11	-8.3	35	8%	/	?	-18%
